Ab BasE inh: blocks the Acinetobacter baumannii siderophore enzyme BasE; purified BasE, fluorescence polarization binding displacement; inhibition, % (no concentration beside the values); 0.1% of 84,000 active;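 active means both replicates above 25% with normal brightness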;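 further: 0% = negative plate control signal and 100% = positive plate control signal; stock transfer was 100 nL into about 30 µL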
LANA-nucl inh: inhibitors of KSHV LANA binding to nucleosomes | FITC-LANA1-23 / chicken nucleosome fluorescence polarization; stronger effect = lower value | z-score (test concentration not listed) | 0.3% of 51,000 active | AID 720717;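 active means both repeat wells score below -2 in polarization z-score versus plate sample wells, excluding overly bright wells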;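 further: 100 nL library stock added to about 30 µL; numbers are from one replicate; some results filed as inactive read as strong as hits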
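Assay system: FITC-LANA peptide and chicken nucleosomes; input: 240 nM purified chicken nucleosomes (480 nM peptide binding sites), final; also added: 50 nM FITC-LANA1-23 probe; medium: TEN-BT buffer, pH 7.5; doses: pin-transferred compound, 100 nL; times: 10–45 min, room temperature; technique: fluorescence polarization; replication: duplicates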
Starred values were filed as active, the others as inactive; . = not tested or not shown; & = joins results of further samples.

SMILES	Ab BasE inh	LANA-nucl inh
O=C(CSc1nc2ccccc2o1)c1cc2ccccc2o1	-0.8	.
Cc1ccc(N(Cc2ccccc2F)S(C)(=O)=O)c(C)c1	-2.1	-0.792
O=C(CSc1n[nH]c(=O)n1-c1cccnc1)c1ccc(N2CCOCC2)cc1	-2.2	1.32
CCOC(=O)CSc1nnc(CNc2ccc(C)cc2C)n1-c1ccccc1	0.1	0.799
COC(=O)CSc1nc(C)cc(N2CCOCC2)n1	0.5	0.732
CC(C)Cn1c(O)c(NC(=O)N=N)c2ccccc21	1.0	.
CCOc1nc(NC(C)C)nc(NC(C)C)n1	-0.4	0.474
CCCCn1c(N)c(N(C)C(=O)c2ccc(NC(=O)CSc3nnnn3C)cc2)c(=O)[nH]c1=O	1.5	.
CN(C)S(=O)(=O)c1cccc(-c2nnc3n2N=C(c2ccccc2)C(CC(=O)O)S3)c1 (stereo not given)	0.7	.
NS(=O)(=O)c1ccc(CNC(=O)c2ccccn2)cc1	0.6	.
CCCC(C)C(=O)Nc1nnc(C(F)(F)F)s1 (stereo not given)	-0.3	-0.189
Cc1sc2nc(CN3CCOCC3)nc(NC(C)C)c2c1C	2.3	.
COc1ccc(Nc2cc(C)nc3ccc(OC)cc23)cc1	-4.2	-1.45
CCC(NC)c1ccco1 (stereo not given)	-0.7	0.179
Cc1ccc(N(C)C(=O)N2CCN(C(=O)N(C)c3ccc(C)cc3)CC2)cc1	-1.8	2.9
CN1CCN(c2cc(-c3ccccc3)nc3ccccc23)CC1	.	0.892&0.612
CCN(CC)/C(C)=N/S(=O)(=O)c1ccc(Cl)cc1	-1.4	2.9
COC(=O)Cc1c(C)c2ccc(OCC(N)=O)c(C)c2oc1=O	-1.7	2.19
Nc1c(S(=O)Cc2ccccc2)sc2nc(-c3cccs3)cc(-c3ccccc3)c12 (stereo not given)	-5.9	.
CCOC(=O)c1c(C)oc2c1c(C=NC(C)c1ccccc1)c(O)c1ccccc12 (stereo not given)	4.7	.
Cc1ccc(NC(=O)/C(C#N)=C/c2cn(CC(=O)NCc3ccco3)c3ccccc23)cc1Cl	2.4	0.021
N#C/C(C(=O)c1ccccc1)=C1/Nc2ccccc2C1=O	-0.4	-0.215
Cc1ccc(C(=O)Nc2cccc(C(F)(F)F)c2)cc1	0.4	.
CN(Cc1ccccc1)C(=O)c1cc2ncc(Br)cn2n1	-0.7	0.01
O=c1c2c3c(sc2nc2n1CCC2)CCCCC3	-1.0	-1.08

A few values from the list:
For Ab BasE inh, Nc1c(S(=O)Cc2ccccc2)sc2nc(-c3cccs3)cc(-c3ccccc3)c12 (stereo not given) has -5.9
For LANA-nucl inh, CCOC(=O)CSc1nnc(CNc2ccc(C)cc2C)n1-c1ccccc1 has 0.799

Five of these compounds in a different format:
The line under a structure holds: Ab BasE inh, LANA-nucl inh
CCOC(=O)CSc1nnc(CNc2ccc(C)cc2C)n1-c1ccccc1
 : 0.1, 0.799
COC(=O)CSc1nc(C)cc(N2CCOCC2)n1
 : 0.5, 0.732
CC(C)Cn1c(O)c(NC(=O)N=N)c2ccccc21
 : 1.0, .
O=c1c2c3c(sc2nc2n1CCC2)CCCCC3
 : -1.0, -1.08
Nc1c(S(=O)Cc2ccccc2)sc2nc(-c3cccs3)cc(-c3ccccc3)c12 (stereo not given)
 : -5.9, .

The listing continues:
SMILES	Ab BasE inh	LANA-nucl inh
O=C1CC(c2nc3ccccc3[nH]2)CN1c1ccccc1Cl (stereo not given)	0.0	-0.471
COc1ccc(-c2cc(C)no2)cc1S(=O)(=O)Nc1ccc(CN2CCCCC2)cc1	-11.9	.
Nc1ccc2c(c1)C(=O)NC2=O	2.7	0.615
CC/C(=C(/CC)c1ccc(O)cc1)c1ccc(O)cc1	-1.9&-5.1	-0.103&0.183&0.369&0.34
CN(Cc1cccs1)C(=O)c1cc(S(=O)(=O)N2CCOCC2)ccc1F	2.7	.
Cc1ccc2nc3c(cc(C(=O)NCCN4CCOCC4)c(=N)n3C(C)C)c(=O)n2c1	-1.4	-0.533
CN(CC(=O)Nc1ccc2c(c1)OC1(CCCCC1)O2)C1CCCCC1	2.2	.
COC(=O)COc1ccccc1C1NC(=O)NC(C)=C1C(=O)Nc1ccccc1OC (stereo not given)	1.5	1.36
COC(=O)C1=C2NC(=O)c3ccccc3N2C(=O)C1	1.0	.
CC1=CC(C)C2C(=O)N(c3ccccc3)NC(=O)C2C1 (stereo not given)	1.2	-0.584
CC(Sc1nc(-c2cccnc2)ccc1C#N)C(=O)O (stereo not given)	3.0	.
NC(=O)CSc1nnc(Cn2cnc3ccccc32)o1	2.6	-0.71
COc1ccc(OCC(O)CNC(C)(C)C)cc1 (stereo not given)	2.5	.
CCc1cc(=O)oc2cc(OC(=O)c3ccco3)c(Cl)cc12	6.1	-0.302
Nc1c(Cl)ncnc1N1CCCCC1	2.8	-0.109
O=C(O)CCCNC1=NCCC1	3.1	0.721
O=C1NCC(c2ccccc2)C1C(=O)N/N=C\c1cc2c(cc1Br)OCO2 (stereo not given)	0.5	-1.45
CC(C(=O)N1CCc2ccccc21)N1C(=O)c2ccccc2C1=O (stereo not given)	1.4	.
CC(=O)NC(=S)Nc1ccc(Nc2ccccc2)cc1	2.1	0.097
C=CCN1C(=O)S/C(=C/c2ccc(Sc3nc4ccccc4[nH]3)o2)C1=O	-3.3	0.568
S=C(NCCN1CCOCC1)N1CCc2ccccc21	1.8	-0.51
CCS(=O)(=O)CS(=O)(=O)CC	2.0	-0.632
CCn1c(C)c(C(C)(C)C)s/c1=N\S(=O)(=O)c1ccc(Cl)cc1	-0.5	.
Cc1noc(C)c1COc1ccc(C(=O)OCCN2C(=O)c3ccccc3C2=O)cc1	-2.0	.
CC(=O)SCCC(=O)Nc1ccccc1	0.4	0.895

Going on with the list:
SMILES	Ab BasE inh	LANA-nucl inh
COC(=O)c1ccccc1NC(=O)CNc1cc(Cl)ccc1N1CCOCC1	2.0	.
Cc1cnn(-c2ccccc2)c(=O)c1N(C)C	0.9	-0.211
COC(=O)c1ccc(C(=O)OC)c(NC(C)=O)c1	-1.7	-0.506
CC(C)n1ncc2c(C(=O)OCc3ccc(C#N)cc3)cc(-c3ccccc3)nc21	-1.6	.
Cc1ccsc1/C=N/N1CCN(Cc2ccc(Cl)cc2)CC1	0.0	-0.524
CCN1C(=O)CCSc2ccccc21	0.3	1.01
CC(=O)N(c1ccc2oc3c(c2c1)CCCC3)S(=O)(=O)c1ccccc1	1.3	.
CCC(Sc1nc(NC(C)=O)c(NC(=O)c2cccs2)c(=O)[nH]1)C(=O)O (stereo not given)	0.8	-1.21
CCOC(=O)C1=C(CC)NC2=C(C(=O)CCC2)C1c1ccc(Cl)cc1 (stereo not given)	-0.3	.
CCOC(=O)c1[nH]c(COC(=O)c2ccccc2NC(=O)c2ccco2)c(C(=O)OCC)c1C	0.8	.
C/C(=C\C#N)N1CCOCC1	0.0	.
O=C(NCc1ccc(N2CCCC2=O)cc1)Nc1ccccc1	-5.2	2.88
CP(=O)(c1nccn1-c1ccc(Cl)nn1)N1CCCCCC1 (stereo not given)	1.1	.
CC(C)C(NC(=O)c1ccccc1NC(=O)c1ccco1)C(=O)N1CCCCC1 (stereo not given)	1.8	.
Nc1nonc1NC(=O)N/N=C/c1ccc(C(F)(F)F)cc1	-2.5	0.628
Cc1ccc(NC(=O)C(Sc2nnc(-c3ccc4c(c3)OCO4)o2)c2ccccc2)cc1 (stereo not given)	1.2	.
CC(C)CN(CC(C)C)S(=O)(=O)c1ccc(-c2ccc(=O)[nH]n2)s1	-0.7	.
Cc1nc(-c2ccccc2)cs1	.	0.203
O=C1CC2(CCN(C(=O)c3ccccc3)CC2)Oc2ccccc21	0.4	-0.893
CCCCCc1nc2ccccc2[nH]1	0.6	0.0675
COCCCn1c(=O)c2ccccc2n(CC(N)=O)c1=O	1.4	-1.21
CC1Cc2ccccc2N1C(=O)Nc1c[nH]c2ccccc12 (stereo not given)	1.1	-1.12
O=C(CSc1nnc(SCC(=O)NC2CC2)s1)NC1CC1	9.4	.
FC(F)(F)c1cnc(-n2cncn2)c(Cl)c1	.	-0.055
O=C(NCc1ccccc1)Nc1ccccc1F	3.7	-0.48

Brought forward from above: two compounds; new compounds follow.
SMILES	Ab BasE inh	LANA-nucl inh
FC(F)(F)c1cnc(-n2cncn2)c(Cl)c1	.	-0.055
O=C(NCc1ccccc1)Nc1ccccc1F	3.7	-0.48
C=CCNc1oc(Cc2ccccc2)nc1C#N	-2.2	0.332
CCCNS(=O)(=O)c1ccc(OCC(=O)NCCC2=CCCCC2)cc1	0.0	-0.0885
COC(=O)Nc1ccccc1	7.4	.
N#Cc1c(NS(=O)(=O)c2ccccc2)n(-c2ccccc2)c2nc3ccccc3nc12	0.0	.
Nc1ccccc1NC(=O)CCC(=O)O	0.6	-0.718
CSc1ccccc1NC(=O)CSc1ncccn1	-0.3	0.167
Cc1cc2cc(CN3C(=O)c4ccccc4C3=O)ccc2n1C	-0.4	-0.837
Cc1cc(C)n(CCCNC(=O)c2ccccc2NC(=O)c2ccco2)n1	-3.2	.
Nc1no[n+]([O-])c1C(=O)NCCO	-0.1	0.91
O=C1CC(c2cccc(O)c2)C2=C(CC(c3ccc(F)cc3)CC2=O)N1 (stereo not given)	6.8	0.175
COc1cccc(NC(=O)c2ccc(-n3cccn3)nc2)c1	.	0.335
COc1cccc(NC(=O)Cn2ncc3c2-c2ccccc2OC3)c1	-0.9	-2.31*
Cc1ccc(S(=O)(=O)N2CCN(C3=CC(=O)CC(C)(C)C3)CC2)cc1	-3.6	.
CCOC(=O)c1cnc2c(Cl)cc(Cl)cc2c1NCCOCCO	-1.5	0.366
Oc1ccc(-n2nnnc2SCc2ccc(-n3ccnc3)cc2)cc1	18.5	.
Cc1cccc(Nc2cc(Nc3ccc4c(c3)n(C)c(=O)n4C)ncn2)c1	-0.7	0.416
CCOC(=O)c1cc2c(=O)n3ccccc3nc2n(C2CCCCC2)c1=N	-2.3	1.75
CC1=C(c2ccccc2)S(=O)(=O)NC1=NC1CCN(Cc2ccccc2)CC1	-0.3	0.126
COc1cccc2c1OC(c1ccco1)N1N=C(c3ccccc3)CC21 (stereo not given)	-4.3	-0.901
Cc1nn(-c2ccccc2)nc1CNC(=O)c1ccc2nsnc2c1	-0.5	0.34
CCN(c1ccccc1)S(=O)(=O)c1ccc(C(=O)N2CCN(c3ncccn3)CC2)cc1	1.3	.
Cc1ccc(N=C2NC(=O)CC(C(=O)Nc3ccc(Cl)cc3)S2)cc1C (stereo not given)	4.2	.
CCN(CC1COc2ccccc2O1)C(=O)c1cnccn1 (stereo not given)	-0.3	.
O=C(O)CCCNC1=NCCN1	3.1	-1.07
Cc1cc(C)n2cc(CSCC(=O)O)nc2n1	1.6	.

Following part
SMILES	Ab BasE inh	LANA-nucl inh
CCSc1nc2nn(-c3ccccc3)c(=O)c-2c2n1CCCCC2	2.5	.
CCOc1ncccc1C(=O)Nc1ccnn1C(C)C1CC1 (stereo not given)	1.3	.
CN1CCCN(C(=O)Nc2ccc(F)cc2)c2nc3ccccc3nc21	3.5	.
COC(=O)c1sccc1S(=O)(=O)N1CCCC1	1.6	-0.29
Cc1ccccc1Nc1nnc(SCC(C)C)s1	0.8	.
O=C(NC(=S)N1CCN(c2ccccc2)CC1)c1ccccc1	-1.8	0.289
OCC1(CO)COC(c2ccc(Cl)cc2Cl)=N1	0.0	-1.97
CCCCCn1cn[nH]c1=S	-0.7	.
CC(C)(C)N(C(=O)c1ccc(S(=O)(=O)N2CCCC2)cc1)C(=O)N1CCCCC1	3.5	-0.465
CCOCC(=O)N1CCN(CC)CC1	-0.3	-0.381
CN(CC(=O)NCc1ccc(Cl)cc1)S(=O)(=O)c1ccc2c(c1)CCCC(=O)N2	1.2	.
COC(=O)CC(=O)Nc1cc2c(cc1N1CCCC1)n(C)c(=O)n2C	3.2	-1.62
CN(C)S(=O)(=O)c1cccc(C(=O)c2nccn2C)c1	1.1	.
CN1C(C)(C)CC(NC(=O)Nc2ccc(F)cc2)CC1(C)C	-1.0	0.033
O=C(O)c1ccc(-c2ccccc2)cc1	5.5	0.377
CC(NC(=O)C1=NNC(=O)CC1)C12CC3CC(CC(C3)C1)C2 (stereo not given)	-0.2	.
Cc1cccc(NC(=O)COC(=O)CC2CCCC2)c1C	-0.3	.
O=C(O)c1cc(N=Cc2ccccc2)ccc1O	1.4	1.27
O=C(/C=C/c1cn(-c2ccccc2)nc1-c1cc2ccccc2o1)OCC(=O)c1ccc[nH]1	2.1	.
COc1ccc(C2CC(c3nc4ccccc4[nH]3)=NN2C(=O)c2ccc(Br)o2)cc1 (stereo not given)	2.9	-0.397
CC(C)(C)c1ccc(Oc2ncccc2C(=O)O)cc1	0.8	.
Cc1noc(/C=C/N(C)C)c1S(=O)(=O)N1CCCC(C(=O)N2CCc3ccccc32)C1 (stereo not given)	-2.1	-0.205
O=C(Nc1ccc(N2CCOCC2)c2nonc12)c1ccco1	-1.8	2.56
CCOC(=O)c1cc2c(ccn2C)n1CC(=O)NC(c1ccccc1)c1ccccc1	-1.6	-0.534
Cc1ccccc1Nc1nc(N)nc(CSc2nnc(Cc3ccccc3)o2)n1	-3.7	.

Three consecutive entries already listed, for reference:
SMILES	Ab BasE inh	LANA-nucl inh
CN1C(C)(C)CC(NC(=O)Nc2ccc(F)cc2)CC1(C)C	-1.0	0.033
O=C(O)c1ccc(-c2ccccc2)cc1	5.5	0.377
CC(NC(=O)C1=NNC(=O)CC1)C12CC3CC(CC(C3)C1)C2 (stereo not given)	-0.2	.

Assay outcomes as filed in PubChem.

A portion of the library; the hit share may differ from the screen's.
